Screening data deposited in PubChem BioAssay by Broad Institute.
MLL AF4-AF9 inh: blocks AF4 peptide binding to human AF9 | actives 0.47% (n = 350,000) | AlphaScreen, biotin-AF4 peptide binding to FLAG-AF9 | inhibition, % at 10 µM;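 active = every replicate reaching a set inhibition limit, whatever the replicate mean, cut at about 25% in these data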;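 also: 0% = plate neutral control median and 100% = total signal loss; the record names both 10 and 1 µM as test concentration; the first replicate is given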
Target sequence (P42568 whole entry, looked up): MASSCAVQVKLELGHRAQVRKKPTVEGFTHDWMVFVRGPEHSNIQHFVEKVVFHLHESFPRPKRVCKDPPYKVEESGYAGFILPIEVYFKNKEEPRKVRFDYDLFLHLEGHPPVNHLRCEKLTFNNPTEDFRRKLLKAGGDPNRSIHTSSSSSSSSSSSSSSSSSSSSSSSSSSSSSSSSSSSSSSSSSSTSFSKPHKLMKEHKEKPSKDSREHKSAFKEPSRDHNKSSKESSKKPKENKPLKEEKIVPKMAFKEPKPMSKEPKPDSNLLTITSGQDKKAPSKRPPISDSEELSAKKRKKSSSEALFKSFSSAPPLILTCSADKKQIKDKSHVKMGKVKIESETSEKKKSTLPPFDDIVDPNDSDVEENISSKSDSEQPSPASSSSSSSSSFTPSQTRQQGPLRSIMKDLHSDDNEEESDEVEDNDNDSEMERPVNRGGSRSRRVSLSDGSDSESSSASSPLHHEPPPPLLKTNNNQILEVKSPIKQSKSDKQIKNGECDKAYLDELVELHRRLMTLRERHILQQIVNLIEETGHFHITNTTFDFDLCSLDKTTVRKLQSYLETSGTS
Ecoli rRNA inh: inhibitors of bacterial rRNA selective over humanized ribosomes | actives 1.6% (n = 350,000) | AID 720706 | GFP signal change (wild-type ribosome), % (concentration not given with the values) | E. coli WT GFP vs humanized-ribosome RFP mutants, fluorescence, 24 h; stronger effect = lower value; DMSO median 0, no signal -100;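 active = significant combined selectivity score with lowered wild-type GFP, culture density cut under 30%, mutant RFP and density less affected; inactive = any of these conditions unmet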; also: one replicate is shown; some compounds called inactive have numbers as strong as hits
Ecoli rRNA inh OD600: further read-out of Ecoli rRNA inh, marked with its call; OD600 change, %; measured here: OD600 growth;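 optical density of the mix in the first replicate; 0 = DMSO median and -100 = no signal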
Ecoli rRNA inh RFP: second read-out of Ecoli rRNA inh, no call of its own (marks repeat the call); RFP signal change, %; measured here: RFP humanized mutant strains;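 first replicate; 0 = DMSO median and -100 = no signal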
Starred values were filed as active, the others as inactive; & = joins results of further samples. A portion of the library, so the mix of outcomes need not match the whole.

nr	Ecoli rRNA inh	Ecoli rRNA inh RFP	Ecoli rRNA inh OD600	MLL AF4-AF9 inh	mol
1	4	0.4	10	-3.5	O=C1CN(Cc2ccc(F)cc2)C[C@@H]2[C@@H](c3ccc(-c4cccnc4)cc3)[C@@H](CO)N12
2	-1	-0.8	2	2.2	CO[C@H]1CN(C)C(=O)c2cc(NS(=O)(=O)c3ccc(Cl)cc3)ccc2OC[C@H](C)N(C)C[C@H]1C
3	-3	-5.8	4	0.8	COc1cccc(C#Cc2ccc3c(c2)[C@H]2[C@H](CCN2C(C)=O)[C@H](CO)N3)c1
4	-2	-0.6	-11	-0.2	Cc1noc(C)c1NC(=O)Nc1ccc2c(c1)C(=O)N([C@H](C)CO)C[C@H](C)[C@@H](CN(C)S(=O)(=O)c1ccccc1)OCCCC[C@H](C)O2
5	-5	-1.1	-2	1.0	C[C@@H]1CN([C@@H](C)CO)C(=O)c2cccc(NS(=O)(=O)c3cccs3)c2O[C@@H]1CN(C)Cc1ccc(Cl)c(Cl)c1
6	0	-1.2	4	-0.6	O=C(C[C@@H]1CC[C@@H](NC(=O)C2CCOCC2)[C@@H](CO)O1)NCC1CC1
7	1	1.5	2	-3.9	O=C(C[C@H]1C=C[C@@H](NC(=O)C2CCOCC2)[C@@H](CO)O1)NCc1ccccc1Cl
8	3	1.0	3	-2.6	Cc1noc(C)c1S(=O)(=O)Nc1ccc2c(c1)C(=O)N([C@@H](C)CO)C[C@H](C)[C@H](CN(C)C)OCCCC[C@@H](C)O2
9	3	23	-12	-0.1	O=C(Nc1cccc(F)c1)N1CC(=O)N2[C@H](CO)[C@@H](c3ccc(C#CCC4CCCC4)cc3)[C@H]2C1
10	-2	-1.1	4	-0.9	C[C@H]1CN([C@@H](C)CO)C(=O)c2cc(-c3cccc(F)c3)cnc2O[C@@H]1CN(C)Cc1cccnc1
11	-9	8.8	-26	1.1	CC(C)c1cn(CC[C@@H]2CC[C@@H](NC(=O)Nc3cc(Cl)cc(Cl)c3)[C@@H](CO)O2)nn1
12	3	1.4	-4	-3.0	C[C@@H]1CCCCO[C@H](CN(C)S(=O)(=O)c2ccc(Cl)cc2)[C@H](C)CN([C@H](C)CO)C(=O)c2cc(NC(=O)C3CCCCC3)ccc2O1
13	1	-0.2	6	-1.5	C/C=C/c1ccc([C@@H]2[C@@H](CO)N3C(=O)CN(C(=O)c4ccncc4)C[C@@H]23)cc1
14	1	-0.6	6	-0.9	COCC(=O)N1[C@@H]2c3ccc(-c4ccccc4)c(=O)n3C[C@@H]2[C@@H](CO)[C@@H]1C(=O)Nc1ccccc1
15	4&0	-1.1&-6.5	1&-8	2.7&11	COc1ccc(NC(=O)N2[C@@H]3CNC[C@H]2C3c2ccc(-c3ccc(OC)cc3)cc2)cc1 (stereo partly specified)
16	2	0.3	1	0.6	O=C1CNC[C@@H]2[C@H](c3ccc(C#CC4CCCC4)cc3)[C@@H](CO)N12
17	4	-0.7	10	-3.4	O=C(NCCCN1CCOCC1)[C@H]1[C@H](CO)[C@H]2Cn3c(cccc3=O)[C@@H]1N2C(=O)C1CCCCC1
18	1	-3.5	0	-1.9	Cc1cc(C(=O)Nc2cccc3c2O[C@@H](CN(C)C(=O)Nc2ccc(C(F)(F)F)cc2)[C@H](C)CN([C@@H](C)CO)C3=O)n(C)n1
19	5&-61	0.1&-11	-28&-76	-2.8&-4.5	O=S(=O)(c1cccc(F)c1)N1[C@@H]2CNC[C@H]1C2c1ccc(-c2ccccc2)cc1 (stereo partly specified)
20	2	-2.4	2	-3.5	C[C@@H]1CCCCO[C@H](CN(C)S(=O)(=O)c2cn(C)cn2)[C@@H](C)CN([C@@H](C)CO)C(=O)c2cc(NC(=O)C3CCCCC3)ccc2O1
21	4	-0.3	14	-3.6	O=C(CN1CCOCC1)N[C@H]1CC[C@@H](CCn2cc(C3CCCC3)nn2)O[C@@H]1CO
22	3	-3.0	1	-3.9	CNC[C@@H]1Oc2ncc(-c3cncnc3)cc2C(=O)N([C@H](C)CO)C[C@@H]1C
23	3	3.9	-25	6.1	O=C(Cc1ccccn1)N1CC(=O)N2[C@@H](CO)[C@@H](c3ccc(C#CC4CCCCC4)cc3)[C@@H]2C1
24	1	-0.5	1	-2.0	O=C(O)C[C@H]1CC[C@@H](NC(=O)Nc2ccccc2)[C@@H](CO)O1
25	0	-0.7	-4	-3.2	C[C@H](CO)N1C[C@H](C)[C@H](CN(C)S(C)(=O)=O)Oc2ccc(NC(=O)CCCN(C)C)cc2C1=O

Grouped by structure: the compounds so far with an aryl methoxy group
nr	Ecoli rRNA inh	Ecoli rRNA inh RFP	Ecoli rRNA inh OD600	MLL AF4-AF9 inh	mol
3	-3	-5.8	4	0.8	COc1cccc(C#Cc2ccc3c(c2)[C@H]2[C@H](CCN2C(C)=O)[C@H](CO)N3)c1
15	4&0	-1.1&-6.5	1&-8	2.7&11	COc1ccc(NC(=O)N2[C@@H]3CNC[C@H]2C3c2ccc(-c3ccc(OC)cc3)cc2)cc1 (stereo partly specified)

Returning to the listing; the four compounds before the break are reprinted first.
nr	Ecoli rRNA inh	Ecoli rRNA inh RFP	Ecoli rRNA inh OD600	MLL AF4-AF9 inh	mol
22	3	-3.0	1	-3.9	CNC[C@@H]1Oc2ncc(-c3cncnc3)cc2C(=O)N([C@H](C)CO)C[C@@H]1C
23	3	3.9	-25	6.1	O=C(Cc1ccccn1)N1CC(=O)N2[C@@H](CO)[C@@H](c3ccc(C#CC4CCCCC4)cc3)[C@@H]2C1
24	1	-0.5	1	-2.0	O=C(O)C[C@H]1CC[C@@H](NC(=O)Nc2ccccc2)[C@@H](CO)O1
25	0	-0.7	-4	-3.2	C[C@H](CO)N1C[C@H](C)[C@H](CN(C)S(C)(=O)=O)Oc2ccc(NC(=O)CCCN(C)C)cc2C1=O
26	4	-2.0	3	-4.1	CC(=O)N(C)C[C@H]1[C@@H](c2ccc(-c3cccnc3)cc2)[C@@H](CO)N1C(=O)C1CC1
27	-1	-2.8	-1	1.1	COCC(=O)Nc1ccc2c(c1)OC[C@H](C)N(CCC(F)(F)F)C[C@@H](C)[C@@H](OC)CN(C)C2=O
28	3	-3.4	11	4.3	C[C@H](CO)N1C[C@H](C)[C@@H](CN(C)Cc2ccccc2C(F)(F)F)OCc2ccccc2-c2c(n(C)c3ccccc23)C1=O
29	4	-0.8	8	0.9	C[C@@H]1CCCCO[C@@H](CN(C)Cc2ccc3c(c2)OCO3)[C@H](C)CN([C@@H](C)CO)C(=O)c2cc(NS(=O)(=O)c3ccccc3)ccc2O1
30	0	1.3	5	-3.0	CCS(=O)(=O)N(C)C[C@@H]1N[C@H](CO)[C@@H]1c1ccc(-c2ccccc2F)cc1
31	-4	22	-19	1.8	C[C@H](CO)N1C[C@H](C)[C@H](CN(C)Cc2ccccc2)Oc2ccc(NC(=O)Nc3ccc4c(c3)OCO4)cc2CC1=O
32	2	-3.2	2	-2.1	O=C(C[C@H]1C[C@H]2c3cc(NC(=O)C4CCOCC4)ccc3O[C@H]2[C@H](CO)O1)NCC1CC1
33	4	-1.5	3	-5.6	C[C@@H]1CN([C@@H](C)CO)C(=O)Cc2cc(NC(=O)c3ccncc3)ccc2O[C@H]1CN(C)S(C)(=O)=O
34	-1	20	-34	-6.4	CCCC#Cc1ccc([C@H]2[C@H](CO)N3C(=O)CN(C(=O)Nc4ccccc4)C[C@@H]23)cc1
35	-3	5.3	2	-0.3	CCN1[C@@H]2c3ccc(C4=CCCCC4)c(=O)n3C[C@H]1[C@H](CO)[C@H]2C(=O)N1CCc2ccccc2C1
36	5	7.9	7	-2.9	O=C(C[C@H]1CC[C@H]2[C@@H](COC[C@@H](O)CN2S(=O)(=O)c2cccc(Cl)c2)O1)Nc1ccc(-c2ccccc2)cc1
37	1	-2.7	4	-5.3	CNC[C@H]1Oc2ccc(NS(=O)(=O)c3cn(C)cn3)cc2CC(=O)N([C@@H](C)CO)C[C@H]1C
38	-58	-11	-77	-4.9&0.3	O=C(Nc1ccc(C(F)(F)F)cc1)N1C[C@@H]2N[C@H](C1)C2c1ccc(-c2cccc(F)c2)cc1 (stereo partly specified)
39	0	-2.4	2	-0.3	O=C(C[C@H]1CC[C@@H]2[C@H](COC[C@@H](O)CN2C(=O)c2ccncc2)O1)NCc1ccc(-c2ccccc2)cc1
40	-12	26	-64	0.4	COc1cccc(NC(=O)N2CC(=O)N3[C@H](CO)[C@@H](c4ccc(C5=CCCC5)cc4)[C@@H]3C2)c1
41	-45	0.1	-68	2.0	O=C1CN(Cc2ccc(F)cc2)C[C@H]2[C@H](c3ccc(-c4ccccc4F)cc3)[C@H](CO)N12
42	-4	-1.1	0	-4.4	O=S(=O)(c1ccccc1)N1CC2(C1)[C@@H](c1ccccc1)[C@H](CO)N2CC1CC1
43	6	-1.6	5	1.3	C[C@@H]1CN([C@@H](C)CO)C(=O)c2cc(NC(=O)Nc3ccc(F)cc3)ccc2O[C@H]1CN(C)C(=O)Nc1ccc2c(c1)OCO2
44	7	-5.4	6	1.3	COc1ccc2c3c([nH]c2c1)[C@H](CO)N(C(=O)CN1CCOCC1)CC31CN(C)C1
45	2	-2.2	3	-2.6	COCCNC(=O)C[C@H]1C[C@@H]2c3cc(NC(=O)COC)ccc3O[C@@H]2[C@H](CO)O1
46	-6	-1.9	-5	-5.0	COc1cccc(NC(=O)N[C@@H]2C=C[C@@H](CC(=O)Nc3ccccc3)O[C@@H]2CO)c1
47	1	-3.2	1	4.8	CNC[C@H]1Oc2ccc(NS(C)(=O)=O)cc2CC(=O)N([C@@H](C)CO)C[C@H]1C
48	2	-2.4	-1	-3.5	O=C(NCCN1CCCC1)[C@H]1[C@H](CO)[C@H]2Cn3c(cccc3=O)[C@@H]1N2C(=O)NC1CCCC1
49	-7	-0.6	-27	-0.8	CCS(=O)(=O)N1[C@H](C#N)[C@@H](c2ccc(-c3cccc(F)c3)cc2)[C@@H]1CO
50	0	-0.6	6	-2.8	O=C(Cc1ccccc1)N1CC(=O)N2[C@H](C1)[C@H](c1ccc(C3=CCCC3)cc1)[C@@H]2CO
51	2	0.3	2	-6.6	NCC[C@H]1CC[C@@H](NC(=O)C2CC2)[C@H](CO)O1
52	-2	0.7	-1	1.4	CCCNC(=O)C[C@H]1CC[C@@H]2[C@H](COc3ccc(NC(=O)c4cccc(C(F)(F)F)c4)cc3C(=O)N2C)O1
53	-27	21	-51	-3.1	O=C(Nc1ccc(F)cc1)N1CC(=O)N2[C@@H](CO)[C@@H](c3ccc(-c4ccc(F)cc4)cc3)[C@@H]2C1
